# Measles inh – inhibitors of measles virus growth in infected cells | infected Vero cells, GFP fluorescence, 64 h; stronger effect = lower value | AID 745 | actives 0.1% (n = 33,000) | z-score (concentration not given with the values);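 active means z-score under -3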;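 further: score is relative to mean and SD of the compound wells of a plate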
# * marks the source's active call; other numbers are inactive results.
SMILES,Measles inh
COc1ccc(CCN2C(=O)CC(C(=O)Nc3cccc(C)c3)SC2=Nc2ccccc2)cc1OC (configuration not stated),0.51
CN1CCN(S(=O)(=O)c2cccc(C(=O)Nc3ccccc3)c2)CC1,0.54
COCCNC(=O)CCS(=O)(=O)Cc1cccc(Cl)c1,1.1
Nc1c(Nc2ccc(C(=O)O)cc2)c2ccccc2oc1=O,1
COc1cccc(NS(=O)(=O)c2cc(Br)cc3c2N(C(C)=O)C(C)C3)c1 (configuration not stated),-0.53
CCSCCOC(=O)C1=C(C)NC2=C(C(=O)CC(c3ccccc3)C2)C1c1ccc(OC)c(Br)c1 (configuration not stated),-2.1
Cc1ccc(-c2cc(C(=O)O)c3cc(Br)ccc3n2)s1,0.09
COC(=O)c1ccc2c(=O)n(CCc3ccc(S(N)(=O)=O)cc3)c(SCc3cccc(Br)c3)nc2c1,0.36
CCCCCn1c(=S)[nH]c2cc(C(=O)N(CC)CC)ccc2c1=O,-0.76
CCc1ccc(-c2ccc(C(=O)Oc3ccccc3)cc2)nc1,-0.47
COc1ccc(N2C(=O)c3sc4nnc(C)c(=O)n4c3C2=O)cc1,-0.15
COc1ccc(CN2CCCN(Cc3ccc(OC)cc3)C2c2ccc(F)cc2)cc1,-0.24
Cc1ccc(N2C(=O)c3ccc4c5c(ccc(c35)C2=O)C(=O)NC4=O)cc1,0.34
CCOC(=O)c1c(-c2ccccc2)csc1N=CC1C(=O)CC(C)(C)CC1=O,0.09
CC1CCCC(NC(=O)CCn2c(=O)[nH]c3ccsc3c2=O)C1C (configuration not stated),-0.93
CCc1ccc(NC(=O)N(C2CCCCC2)C(C)c2ccccn2)cc1 (configuration not stated),-0.73
COc1ccc(NC(=O)c2ccc(OC)c(S(=O)(=O)N3CCOCC3)c2)cc1,-0.05
CN(Cc1ccccc1)C(=O)c1cc(N2C(=O)C3C4CCC(C4)C3C2=O)ccc1Cl (configuration not stated),-0.35
Cc1c(Cl)c([N+](=O)[O-])nn1CC(=O)NC(C)c1ccccc1 (configuration not stated),0.26
O=C(NCC(=O)N1CCC(N2CCCCC2)CC1)C1CCCCC1,0.1
COCCCn1c(=N)c(C(=O)NCc2ccco2)cc2c(=O)n3ccccc3nc21,-0.07
COc1cccc2cc(-c3csc(Nc4ccccc4Cl)n3)c(=O)oc12,-1
CCOC(=O)Cc1ccc(NCc2ccc(Cl)cc2)cc1,-0.11
Cn1c(=O)n(C)c2nc([N+](=O)[O-])c(Cl)cc21,0.03
CC1CCN(CCNS(=O)(=O)c2ccc3c(c2)oc(=O)n3C)CC1,-0.83
Cc1ccc(N2C(=O)NC3CC2(C)Oc2ccc([N+](=O)[O-])cc23)cc1F (configuration not stated),-1.6
CC1=C(C(=O)Nc2cccc(C)n2)C(c2ccccc2C(F)(F)F)C2=C(CCCC2=O)N1 (configuration not stated),0.87
Cc1ccc(-c2noc(CCC(=O)Nc3ccc(Cl)cn3)n2)cc1,0.2
COc1cc(C2Nc3ccccc3-c3nnc(SCc4ccccc4)nc3O2)ccc1OCC(=O)O (configuration not stated),-0.67
Cc1ccc(C(=O)COC(=O)CN2C(=O)C3C4C=CC(C4)C3C2=O)cc1[N+](=O)[O-] (configuration not stated),0.45
COc1ccc(C(=O)N(CCCN2C(=O)c3cccc4cccc(c34)C2=O)c2ccccc2OC)cc1,0.73
O=C(CCS(=O)(=O)Cc1ccc(Cl)cc1)NCc1cccnc1,0.55
Cc1ccc(C23CC4CC(CC(CN)(C4)C2)C3)cc1C,-1.1
CCOc1ccc(C2C(=O)N(C3CCCCC3)CC(=O)N2Cc2ccco2)cc1OC (configuration not stated),-0.35
CN(C)c1ccc(C2CC(c3c(-c4ccccc4)c4cc(Cl)ccc4[nH]c3=O)=NN2C(=O)CCC(=O)O)cc1 (configuration not stated),1.2
CCc1cccc(C)c1-n1nnnc1C(C)(C)Nc1cccc(C)c1,-1.4
Cc1ccc(NC(=O)c2cc(S(=O)(=O)N3CCCc4ccccc43)ccc2F)cc1F,0.56
CC(C)(C)C1CCc2c(sc3[nH]c(=S)[nH]c(=O)c23)C1 (configuration not stated),-0.19
O=C(O)c1ccc(CNC(=O)C2CCCN(S(=O)(=O)c3cccc4nsnc34)C2)cc1 (configuration not stated),0.17
Nc1nnc(SCC(=O)c2cccc([N+](=O)[O-])c2)s1,1.4
COC(=O)C(NC(=O)c1ccccc1)(Nc1ccc(OC(F)(F)Cl)cc1)C(F)(F)F (configuration not stated),0.2
COc1ccccc1Nc1nc(C2(C)CC3(CC(C)(C)OC3=O)C(=O)O2)cs1 (configuration not stated),-0.62
CC1=C(C(=O)OCCOc2ccccc2)C(c2cccc(Br)c2)C2=C(CC(c3ccccc3)CC2=O)N1 (configuration not stated),-1.4
CCOC(=O)c1c(NC(=O)CCC(=O)O)sc2c1CCC2,-0.17
CCOC(=O)CSc1ccc(S(=O)(=O)N2CCOCC2)cc1[N+](=O)[O-],0.16
Cc1nn(C)c(-c2n[nH]c(=S)n2Cc2ccccc2)c1Cl,1.6
CCOC(=O)c1cc2c(=O)n3ccccc3nc2n(CCCOC)c1=NC(=O)c1ccccc1,-0.64
O=C(CCS(=O)(=O)c1cccc2nsnc12)NCc1cccnc1,-0.41
COc1cc2c(cc1OC)-c1nnc(-c3ccc(Cl)cc3)n1C(C)(C)C2,-0.92
Cc1cc2c(=O)n(CC(=O)NCC(=O)O)cnc2s1,0.51
O=C1C2=C(C(c3ccccc3)=NCCN2)C(c2cccc([N+](=O)[O-])c2)N1c1ccccc1 (configuration not stated),-0.55
Cc1ccc(OC(=O)c2cccc(S(=O)(=O)N3CCOCC3)c2)cc1C,0.18
CCSCCOC(=O)C1=C(C)NC2=C(C(=O)CC(c3cccs3)C2)C1c1cccc(F)c1 (configuration not stated),-0.62
COc1ccc(C2CC(=O)C3=C(C2)Nc2ccccc2NC3c2coc3ccc(C)cc3c2=O)cc1 (configuration not stated),-0.33
CCOC(=O)c1ccc(NC(=O)c2c(NC(=O)c3ccccc3F)sc3c2CCC(C)C3)cc1 (configuration not stated),-0.39
CCC(=O)N1CCc2cc(Br)cc(S(=O)(=O)CCC(=O)NCC3CCCO3)c21 (configuration not stated),-0.27
Nc1cccc(-c2nnc(-c3ccco3)o2)c1,-1.9
Clc1ccc(C2=CC(c3ccc(Br)cc3)n3ncnc3N2)cc1 (configuration not stated),0.36
CC(=O)c1c(C)oc2ccc(NS(=O)(=O)c3ccc(C(C)(C)C)cc3)cc12,0.04
CC1CC(N(C(=O)c2ccco2)c2ccccc2)c2ccccc2N1C(=O)c1ccco1 (configuration not stated),-0.16
# Later entries
SMILES,Measles inh
CCc1c(C)nc(SCc2cccc(C)c2)c(C#N)c1C,-0.64
O=C(CN1CCN(CC(=O)Nc2ccccc2F)CC1)Nc1ccccc1F,2.3
Cc1ccnc(NS(=O)(=O)c2ccc(Cl)s2)c1,-0.42
COc1ccccc1-c1nnc(SCC(=O)Nc2nccs2)o1,2.2
CCCCCc1nnc2n1N=C(c1ccc(F)cc1)CS2,-1
Cc1ccccc1C(=O)Nc1c(-c2cccs2)nc2ccccn12,-0.53
CC(C)(C)c1nnc(NC(=O)c2cccc([N+](=O)[O-])c2)s1,-0.13
Cc1ccc(S(=O)(=O)CCc2nnc(NC(=O)c3ccc(C(C)(C)C)cc3)s2)cc1,0.22
COc1cccc(N2CCN(C(=O)Cn3c4ccccc4c(=O)c4cc(C)ccc43)CC2)c1,-0.05
CN(CC(=O)Nc1nccs1)S(=O)(=O)c1ccc2c(c1)CCC(=O)N2,-1.8
CCC(C)(C(=O)NC1CCCC1)N(C(=O)c1ccc2c(c1)OCO2)c1c(C)n(C)n(-c2ccccc2)c1=O (configuration not stated),-0.91
O=C1CCCN2N=C(SCc3ccc(C(F)(F)F)cc3)SC2=N1,-1.4
COC(=O)C1=C(C)NC(=O)NC1c1ccc(Cl)cc1 (configuration not stated),0.82
COc1ccc(CN2c3cccc[n+]3CC2(O)c2ccc(Cl)cc2)cc1 (configuration not stated),-1.5
Nc1cc(OC(=O)c2cccs2)nn1S(=O)(=O)c1ccccc1,-0.45
CC1=C(C(=O)OC2CCCCCC2)C(c2ccc3c(c2)OCO3)C2=C(CC(C)(C)CC2=O)N1 (configuration not stated),-0.08
O=C(NCc1ccc(F)cc1)c1ccc2c(=O)n(CCCN3CCCC3=O)c(=S)[nH]c2c1,0.56
O=C(Nc1cccc(-c2nc3ccccc3c(=O)o2)c1)c1ccc([N+](=O)[O-])cc1,0.48
CCOC(=O)c1c(NC(=O)CSc2nnc3sc4ccccc4n23)sc2c1CCCCC2,0.96
CC(c1ccccc1)C1CC(=O)N(c2ccc(F)cc2)C1=O (configuration not stated),1.6
O=[N+]([O-])c1ccc(NCC(O)CNc2ccc([N+](=O)[O-])cc2Cl)c(Cl)c1,8
COC(=O)Cc1nc(N2CCCCCC2)c2c(C)c(C)sc2n1,-0.62
Cc1nn(-c2ccc(I)cc2)c(C)c1-c1cccc([N+](=O)[O-])c1,-0.6
Oc1cc(N=Cc2cccc(I)c2O)ccc1-c1nc2ccccc2s1,-0.67
O=C(Nc1ccc(F)cc1)C1CCC(N2C(=O)C3C4C=CC(C4)C3C2=O)CC1 (configuration not stated),-2.1
Cc1ccc(-c2cn3ccccc3n2)cc1,-1.7
COc1ccc(-n2nc(C(=O)NCC(=O)Nc3ccc4c(c3)OCCO4)c3ccccc3c2=O)cc1Cl,1.5
O=C(NCCCO)C(=O)NCc1ccncc1,1.1
COc1ccc(CN2C(=O)c3ccccc3C2C(=O)NC2CCCCCC2)c(OC)c1 (configuration not stated),-0.38
Cc1sc2c(c1C)c(=O)n(-c1ccccc1)c(=O)n2Cc1cc(=O)n2cc(Cl)ccc2n1,-0.58
C=CCN(CC=C)C(=O)c1cc(-c2ccccc2)nc2ccccc12,0.21
CCc1ccc(OCC(=O)Nc2ccc(Cl)c(-c3nc4ncccc4o3)c2)cc1,0.56
CCOC(=O)c1c(NC(=O)c2ccc(S(=O)(=O)N3CCCc4ccccc43)cc2)sc2c1CCCCC2,-0.91
COC(=O)c1c(NC(=O)c2cc3ccccc3c(=O)o2)sc2c1CCC(C(C)(C)C)C2 (configuration not stated),-0.82
Cc1nn(-c2ccccc2)c2sc(C(=O)Nc3ccc(Br)cc3)cc12,0.19
O=C1C=C(Nc2cccc(C(F)(F)F)c2)c2ccccc2C1=O,-1.6
CCCCn1c(=NC(=O)c2ccco2)c(C(=O)OCC)cc2c(=O)n3ccccc3nc21,1.1
Cc1nc(Nc2nc3ccccc3o2)[nH]c(=O)c1C,-0.57
Cc1cc(NS(=O)(=O)c2ccccc2)c(C(C)C)c(Br)c1O,1.5
COc1ccccc1NC(=O)C1=C(C)Nc2nc3ccccc3n2C1c1ccc(Cl)cc1 (configuration not stated),1.3
CC(C(=O)NC1CCCCC1)N1C(=O)c2ccccc2C1=O (configuration not stated),1.2
O=C1CCC(C(=O)N(Cc2ccco2)C2(C(=O)NC3CCCCC3)CCCCC2)N1 (configuration not stated),-0.94
c1nc2sc3c(c2c2nnnn12)CCCC3,-0.4
Cc1ccc(C2C(=O)N(C3CCCC3)CC(=O)N2C2CCCCC2)cc1 (configuration not stated),1
CCOC(=O)Cn1nc(-c2ccc(C)cc2)ccc1=O,-0.14
O=C(NCCc1ccccc1)c1ccc2c(=O)n(CCc3c[nH]c4ccccc34)c(=S)[nH]c2c1,0.18
O=C(Nc1ccc2oc(-c3ccccc3Br)nc2c1)c1cccc(Br)c1,-0.45
CCOc1cccc(C=Nc2cccc(-c3nc4cc(C)ccc4o3)c2C)c1O,-0.28
O=S(=O)(c1ccc2c(c1)Cc1cc(S(=O)(=O)N3CCOCC3)ccc1-2)N1CCOCC1,-0.02
Cc1ccc(Cc2c(C)nc3nc(SCC(=O)Nc4cccc(C)c4C)nn3c2C)cc1,-0.65
CCN1CCN(C(=O)c2ccc(CS(=O)(=O)Cc3ccc(C)cc3)o2)CC1,0.3
CCCCOc1ccc(C2C(=O)N(C3CCCCC3)CC(=O)N2Cc2ccc(C)cc2)cc1 (configuration not stated),-0.14
CC1(C)Cc2ccccc2C(Nc2ccccc2)=N1,0.22
Cc1ccc(CCN2CC(C(=O)NCCc3ccccc3)CC2=O)cc1 (configuration not stated),1.1

# Of the compounds above, these have two or more sulfur atoms.
SMILES,Measles inh
COC(=O)c1ccc2c(=O)n(CCc3ccc(S(N)(=O)=O)cc3)c(SCc3cccc(Br)c3)nc2c1,0.36
CC(C)(C)C1CCc2c(sc3[nH]c(=S)[nH]c(=O)c23)C1 (configuration not stated),-0.19
O=C(O)c1ccc(CNC(=O)C2CCCN(S(=O)(=O)c3cccc4nsnc34)C2)cc1 (configuration not stated),0.17
Nc1nnc(SCC(=O)c2cccc([N+](=O)[O-])c2)s1,1.4
CCOC(=O)CSc1ccc(S(=O)(=O)N2CCOCC2)cc1[N+](=O)[O-],0.16
O=C(CCS(=O)(=O)c1cccc2nsnc12)NCc1cccnc1,-0.41
CCSCCOC(=O)C1=C(C)NC2=C(C(=O)CC(c3cccs3)C2)C1c1cccc(F)c1 (configuration not stated),-0.62
Cc1ccnc(NS(=O)(=O)c2ccc(Cl)s2)c1,-0.42
COc1ccccc1-c1nnc(SCC(=O)Nc2nccs2)o1,2.2
Cc1ccc(S(=O)(=O)CCc2nnc(NC(=O)c3ccc(C(C)(C)C)cc3)s2)cc1,0.22
CN(CC(=O)Nc1nccs1)S(=O)(=O)c1ccc2c(c1)CCC(=O)N2,-1.8
O=C1CCCN2N=C(SCc3ccc(C(F)(F)F)cc3)SC2=N1,-1.4
Nc1cc(OC(=O)c2cccs2)nn1S(=O)(=O)c1ccccc1,-0.45
CCOC(=O)c1c(NC(=O)CSc2nnc3sc4ccccc4n23)sc2c1CCCCC2,0.96
CCOC(=O)c1c(NC(=O)c2ccc(S(=O)(=O)N3CCCc4ccccc43)cc2)sc2c1CCCCC2,-0.91
O=S(=O)(c1ccc2c(c1)Cc1cc(S(=O)(=O)N3CCOCC3)ccc1-2)N1CCOCC1,-0.02

# A portion of the library (hit frequency here may not be typical).
